VDR inhibitor: blocks the human vitamin D receptor. P11473. VDR-SRC2-3 peptide fluorescence polarization, 2 h. Potency, µM, without a hit: max response, negative = inhibition, usual class: inhibitors. 400,000 tested, 0.93% active. AID 504847; active = well fitted inhibition curve with a large enough effect; inconclusive = small, poorly fitted or top-dose-only effect, or another doubt; inactive = no such curve, though single readings can be large or run the other way; note: series mostly up to about 120 µM
Target sequence (P11473 whole entry, looked up): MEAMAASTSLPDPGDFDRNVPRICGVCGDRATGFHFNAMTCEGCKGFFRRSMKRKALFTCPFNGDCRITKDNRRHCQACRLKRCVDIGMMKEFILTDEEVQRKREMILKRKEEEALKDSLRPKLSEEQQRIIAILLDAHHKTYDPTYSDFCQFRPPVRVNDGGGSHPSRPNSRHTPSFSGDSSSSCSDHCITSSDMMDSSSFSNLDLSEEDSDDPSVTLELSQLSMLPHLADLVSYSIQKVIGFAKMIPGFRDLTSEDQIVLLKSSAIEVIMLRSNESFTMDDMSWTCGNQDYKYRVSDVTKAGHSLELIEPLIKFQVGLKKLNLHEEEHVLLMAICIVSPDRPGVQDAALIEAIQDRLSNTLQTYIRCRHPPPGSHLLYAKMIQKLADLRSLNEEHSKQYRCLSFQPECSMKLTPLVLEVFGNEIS
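Measured by FP: displacement of SRC2-3 coactivator peptide from VDR by library compounds, following a two-hour ambient incubation.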
The depositor's hits bear a star; & = joins results of further samples. % is set by controls: 0 for no effect and ±100 for the full control effect; potency is the fitted concentration of half-maximal effect.

For O=c1c(-c2ccccc2)c1-c1ccccc1 the results were VDR inhibitor 45µM*.
Screening CCC(O)c1nc2ccccc2n1Cc1cccc(Cl)c1 (stereo not given) returned VDR inhibitor 4%.
For COc1ccc(CNCCC(c2ccc(F)cc2)c2ccc(OC(C)C)cc2)cc1OC (stereo not given) the results were VDR inhibitor 7%.
`CC(C)Cn1cnc2c1c(=O)n(CC(=O)Nc1ccc3c(c1)OCO3)c(=O)n2Cc1ccccc1` gave VDR inhibitor -14%.
Screening Cc1cccc(CCNS(=O)(=O)c2ccc(S(=O)(=O)N3CCC(C)CC3)cc2)c1 returned VDR inhibitor 9%.
O=C(NC12CC3CC(CC(C3)C1)C2)OCCNC1CCCCC1 was read as VDR inhibitor 3%.
Screening O=C(c1ccc2c(c1)N(Cc1ccc(F)cc1)C(=O)c1ccccc1S2(=O)=O)N1CCC(Cc2ccccc2)CC1 returned VDR inhibitor -4%.
Screening CC(C)(C)c1csc(NC(=O)CSc2nc3ccccc3c(=O)[nH]2)n1 returned VDR inhibitor -7%.
`CCn1c(CCC(N)=O)nnc1SCC(=O)Nc1cccc(S(=O)(=O)N2CCCC2)c1` gave VDR inhibitor -7%.
Screening CC(C)(C)c1cc(-c2n[nH]c(=S)n2-c2ccccc2F)n[nH]1 returned VDR inhibitor -10%.
`Cc1ccc(N/C(CSC(N)=O)=N/S(=O)(=O)c2ccccc2)cc1` gave VDR inhibitor -9%.
COCON1C(=O)CN(C(C)=O)C1c1ccc(Cl)cc1Cl (stereo not given) was read as VDR inhibitor -6%.
CN(N=O)c1ccc(CC2CCc3ccccc32)cc1 (stereo not given) was read as VDR inhibitor -15%.
Cc1nn(C(C)C(=O)NC2CCCCC2)c(=O)c2nn(-c3ccccc3)c(C)c12 (stereo not given) was read as VDR inhibitor -26%.
For COCCN1CCN(Cc2nc(C3(c4ccc(C)cc4)CCCC3)no2)CC1 the results were VDR inhibitor 1%.
CC1=C(C(=O)OC2CCCCCC2)C(c2cccc(F)c2F)CC(=O)N1 (stereo not given) was read as VDR inhibitor -24%.
N=C(SC1CC(=O)N(c2ccc(F)cc2)C1=O)N1N=C(c2ccccc2)CC1c1ccccc1 (stereo not given) was read as VDR inhibitor -10%.
For COc1ccc(NC(=O)NS(=O)(=O)c2ccc(C)cc2)c(OC)c1 the results were VDR inhibitor 8%.
CN(C)c1ccc(C(=S)N2CCNCC2)cc1 was read as VDR inhibitor -15%.
Screening COc1ccccc1CNC(=O)c1cc(-c2ccncc2)nc2c(Cl)cccc12 returned VDR inhibitor -16%.

Some of these compounds in order of molecular weight, largest number first:
Screening O=C(c1ccc2c(c1)N(Cc1ccc(F)cc1)C(=O)c1ccccc1S2(=O)=O)N1CCC(Cc2ccccc2)CC1 returned VDR inhibitor -4%.
Cc1nn(C(C)C(=O)NC2CCCCC2)c(=O)c2nn(-c3ccccc3)c(C)c12 (stereo not given) was read as VDR inhibitor -26%.
`Cc1ccc(N/C(CSC(N)=O)=N/S(=O)(=O)c2ccccc2)cc1` gave VDR inhibitor -9%.
Screening CC(C)(C)c1cc(-c2n[nH]c(=S)n2-c2ccccc2F)n[nH]1 returned VDR inhibitor -10%.
CN(N=O)c1ccc(CC2CCc3ccccc32)cc1 (stereo not given) was read as VDR inhibitor -15%.
For O=c1c(-c2ccccc2)c1-c1ccccc1 the results were VDR inhibitor 45µM*.

Remaining list, next part.
COc1cc([N+](=O)[O-])ccc1NC(=O)CN1CCc2cc(OC)c(OC)cc2C1 was read as VDR inhibitor -22%.
For Cn1c(SCC(=O)NC2CCCc3ccccc32)nnc1C1CC1 (stereo not given) the results were VDR inhibitor 5%.
`Cc1cccn2c(=O)c(/C=C(\C#N)C(N)=O)c(Oc3ccccc3)nc12` gave VDR inhibitor inconclusive.
`O=C(Nc1ccc(Cl)c(Cl)c1)c1ccccc1NC(=O)C1CC=CCC1C(=O)O` (stereo not given) gave VDR inhibitor 6%.
`C#CCN(C(=O)c1ccc(OC2CCN(C(=O)CCOC)CC2)cc1)C1CCCCC1` gave VDR inhibitor -8%.
`Cn1c(CN2CCC(C(N)=O)CC2)c(C#N)c2ccccc21` gave VDR inhibitor 13%.
Screening COc1ccc(OC(=O)c2c(C)nn(-c3ccccc3)c2C)cc1 returned VDR inhibitor -12%.
Nc1c(N(CCCO)C(=O)C2CCCC2)c(=O)[nH]c(=O)n1Cc1ccccc1 was read as VDR inhibitor 5%.
Screening CC(C)OC(=O)C1OC1(C)c1ccccc1 (stereo not given) returned VDR inhibitor -2%.
O=S(=O)(Oc1ccccc1)c1ccc(Cl)c(Cl)c1 was read as VDR inhibitor 8%.
`CCNC(=S)N=Nc1c(O)n(Cc2ccc(Cl)cc2)c2ccccc12` gave VDR inhibitor 21%.
For COc1ccc(CNc2ccnc(-c3c(C)noc3C)n2)c(OC)c1 the results were VDR inhibitor -27%.
Cc1cc2c3c(c1)C1(C(=O)N3C(C)(C)CC2C)C(C#N)=C(N)Oc2n[nH]c(C)c21 (stereo not given) was read as VDR inhibitor 11%.
Screening N#Cc1cccc(N=c2ssnc2Cl)c1 returned VDR inhibitor inconclusive.
COc1cccc(CNCCO)c1OCc1ccccc1Cl was read as VDR inhibitor 1%.
CCN(Cc1ccccc1)CC(O)COC(c1ccc(OC)cc1)c1ccc(OC)cc1 (stereo not given) was read as VDR inhibitor 7%.
CC(c1ccco1)N(C(=O)COc1ccc(Cl)cc1Cl)c1ccccn1 (stereo not given) was read as VDR inhibitor 1%.
For COc1ccc(CNCC(=O)Nc2sccc2C#N)cc1 the results were VDR inhibitor 9%.
Screening CC1CCC(=O)N(CCOc2ccccc2)CC1 (stereo not given) returned VDR inhibitor inconclusive.
For CC(=O)Nc1ccc(S(=O)(=O)NCCNS(=O)(=O)c2ccc(NC(C)=O)cc2)cc1 the results were VDR inhibitor -8%.

An excerpt from the list above:
Screening CC1CCC(=O)N(CCOc2ccccc2)CC1 (stereo not given) returned VDR inhibitor inconclusive.
For CC(=O)Nc1ccc(S(=O)(=O)NCCNS(=O)(=O)c2ccc(NC(C)=O)cc2)cc1 the results were VDR inhibitor -8%.

Carrying on:
Cc1nc(-c2ccc(NS(=O)(=O)c3ccccc3)cc2)cs1 was read as VDR inhibitor -6%.
Screening CS(=O)(=O)N1CCN(C(=O)C(Sc2ccccc2)c2ccccc2)CC1 (stereo not given) returned VDR inhibitor 9%.
`COc1ccc(NC(=O)CSc2nc(-c3ccc(F)cc3)[nH]c2-c2ccc(C)cc2)cc1OC` gave VDR inhibitor 6%.
For O=C(Nc1ccc2nc(SCC(=O)N3CCOCC3)sc2c1)c1ccc(F)cc1 the results were VDR inhibitor -12%.
For NC(=S)NS(=O)(=O)c1ccc(N)cc1 the results were VDR inhibitor -14%.
`CCOc1nc(NC(=O)NS(=O)(=O)Oc2ccc(Cl)cc2)nc(-c2ccccc2)n1` gave VDR inhibitor -26%.
COC(=O)c1ccc(CN(Cc2ccc(C(=O)OC)o2)C(C)(C)C)o1 was read as VDR inhibitor -15%.
Screening Cn1c(SCC(=O)N/N=C/c2cccnc2)nnc1-c1ccccc1 returned VDR inhibitor 12%.
CCOc1ccc(CCNC(=O)C2Cc3ccccc3N2C(=O)CC)cc1OCC (stereo not given) was read as VDR inhibitor 5%.
Screening CN(C)CCN1C(=O)c2ccccc2N(C)c2ccccc21 returned VDR inhibitor 1%&3%.
For CCCNC(=S)NNC(=O)c1cccs1 the results were VDR inhibitor -26%.
Screening CCOc1ccc(N2CC(C(=O)NCc3ccco3)CC2=O)cc1 (stereo not given) returned VDR inhibitor -28%.
O=C(CCCCn1c(=O)[nH]c2ccsc2c1=O)N1CCN(c2cccc(Cl)c2)CC1 was read as VDR inhibitor 5%.
`Cc1cc(C)c(S(=O)(=O)NCCc2cc3ccc(C)cc3[nH]c2=O)c(C)c1` gave VDR inhibitor -7%.
For CC(CNC(=O)c1ccc(Cn2c(SCc3ccccc3)nc3cccnc32)cc1)c1ccccc1 (stereo not given) the results were VDR inhibitor 14%.
Screening COc1cc(OC)c2c(-c3ccccc3)cc(=O)oc2c1C(CCN1CCCC1)c1ccc2c(c1)OCO2 (stereo not given) returned VDR inhibitor -22%&-9%.
CCc1ccccc1N(C)C(=O)c1nn(-c2ccc(OC)cc2)c(=O)c2c1c1ccccc1n2C was read as VDR inhibitor -2%.
`O=C(O)c1cc(=O)[nH]c2ccc(S(=O)(=O)Nc3ccc(F)cc3)cc12` gave VDR inhibitor -6%.
`CNC(=O)CS(=O)CC(=O)Nc1cc(OCCOC)c(Cl)cc1Cl` (stereo not given) gave VDR inhibitor 18%.
Cc1cccc(C2Nc3ccccc3C(=O)N2c2ccccc2)n1 (stereo not given) was read as VDR inhibitor 12%.
COc1ccc(C(=O)CN2C(=O)N(c3cc(C)ccc3C)S(=O)(=O)c3ccccc32)cc1 was read as VDR inhibitor 5%.
Screening O=C(c1cccs1)c1no[n+]([O-])c1C(=O)c1cccs1 returned VDR inhibitor 45µM*.
`CN(c1ccccc1)S(=O)(=O)c1cccc(C(=O)Nc2ccc(N3CCOCC3)cc2)c1` gave VDR inhibitor 19%.
Cn1c(C(=O)N2CCN(c3cccc(C(F)(F)F)c3)CC2)cc2sccc21 was read as VDR inhibitor 5%.
`CCc1ccc(NC(=O)CC2C(=O)N(c3cccc(C)c3)C(=O)N2Cc2ccco2)cc1` (stereo not given) gave VDR inhibitor 4%.
`O=C(NC1CC2CCC(C1)N2Cc1ccccc1)c1ccccc1Cl` (stereo not given) gave VDR inhibitor -22%.
CCN1C(=O)[C@H]2[C@@H](c3ccc(C)cc3)N3C(=O)N(c4cccc(Cl)c4)C(=O)[C@@]3(Cc3ccc(Cl)cc3)[C@H]2C1=O was read as VDR inhibitor 4%.
For Cc1ccc(C(=O)NCC(=O)O)o1 the results were VDR inhibitor 23%.
CCn1c(COc2ccccc2C(N)=O)nc2ccccc21 was read as VDR inhibitor -7%.
`Clc1ccc(Cn2ccc(C3CC3)n2)cc1` gave VDR inhibitor -1%.
`Cc1cc(C)c2[nH]c(=O)c(C(c3nnnn3Cc3ccc4c(c3)OCO4)N3CCCC3)cc2c1` (stereo not given) gave VDR inhibitor 18%.
COc1ccc(OC)c(NC(=O)C2CC(=O)N(c3ccc(Br)cc3)C2)c1 (stereo not given) was read as VDR inhibitor -5%.
NS(=O)(=O)c1ccc(NC(=O)C(Sc2ccccc2)c2ccccc2)cc1 (stereo not given) was read as VDR inhibitor -14%.
For Cc1cc(C)n2nc(-c3sccc3-n3cccc3)cc2n1 the results were VDR inhibitor -2%.
`COc1ccc(-n2c(-c3ccc(Cl)cc3)c[n+]3c2CCc2ccccc2-3)cc1` gave VDR inhibitor -6%.
For O=C(CN1Cc2ccccc2C1=O)Nc1ccc2c(c1)OCCO2 the results were VDR inhibitor 4%.
Screening CC(=O)N[C@@H]1[C@@H](O)[C@@H]2OC(c3ccccc3)OC[C@H]2O[C@@H]1N=[N+]=[N-] (stereo not given in full) returned VDR inhibitor -3%.
`CCC(=O)Nc1nnc(S(=O)(=O)N(C)Cc2ccccc2)s1` gave VDR inhibitor 6%.
For CC1CC(C)CN(C(=O)COC(=O)c2c[nH]c3ccccc23)C1 (stereo not given) the results were VDR inhibitor -5%.
Cc1ccc(CN2CCSc3ccc(C(=O)Nc4cc(C)cc(C)c4)cc32)cc1 was read as VDR inhibitor -18%.
For CC(C)Cn1nnnc1S(=O)(=O)CC#N the results were VDR inhibitor 7%.
`CCOc1ccc(Nc2nc(N)c([N+](=O)[O-])c(N3CCOCC3)n2)cc1` gave VDR inhibitor -2%.
O=c1[nH]nc(Cc2ccc(-c3ccccc3Cl)o2)c2ccccc12 was read as VDR inhibitor -1%.
COCCCN1C(=O)C(=O)/C(=C(/O)c2ccc(S(=O)(=O)N3CCOCC3)cc2)C1c1ccc(C(C)C)cc1 (stereo not given) was read as VDR inhibitor -3%.
For CCC1(C)CC(=O)N(c2ccc(F)c(Cl)c2)C(=O)C1 the results were VDR inhibitor 19%.
CCOc1ccccc1OCC(=O)Nc1ccccc1C(=O)NC1CC1 was read as VDR inhibitor 5%.
For CN(NC(=O)Nc1ccccc1)c1cnn(C)c(=O)c1Cl the results were VDR inhibitor -15%.
`O=C(OC1CCc2ccccc2C1=O)c1ccccc1O` (stereo not given) gave VDR inhibitor -18%.
COc1ccc(C(=O)OCC(=O)Nc2c(C)cccc2C)cc1 was read as VDR inhibitor 10%.
For O=C(c1ccc2c(c1)CCN2S(=O)(=O)c1ccccc1)N1CCN(c2ccccc2F)CC1 the results were VDR inhibitor -14%&5%.
Screening COc1coc(C(O)C[N+](=O)[O-])cc1=O (stereo not given) returned VDR inhibitor 1%.
COc1ccc(NC(=O)C2CCCN(C(=O)c3ccc(Cl)cc3)C2)cc1Cl (stereo not given) was read as VDR inhibitor -22%.
For CCCN(CC1CC1)c1nc(N)c(C#N)c(CC#N)c1C#N the results were VDR inhibitor -14%.
O=C(Nc1nc2ccccc2s1)C1CC(=O)N(c2ccccc2)C1 (stereo not given) was read as VDR inhibitor -4%.
`COc1ccc(OC)c(C(C(=O)NCc2ccco2)N(C(=O)Cn2nnc3ccccc32)C(C)C)c1` (stereo not given) gave VDR inhibitor 0%.
For C(=N\n1cnnc1)/c1cccs1 the results were VDR inhibitor 0%.
Screening CNC(=O)c1cccc(NC(=O)c2ccccc2OCc2ccccc2)c1 returned VDR inhibitor -4%.
`CC(C)CNC(=O)CCCc1ccccc1` gave VDR inhibitor 15%.
For Cn1cccc1CC(=O)N/N=C/C=C/c1ccccc1 the results were VDR inhibitor 2%.
COC(=O)c1ccc(C2C(C(=O)c3cc4ccccc4o3)=C(O)C(=O)N2c2cc(C)on2)cc1 (stereo not given) was read as VDR inhibitor -13%.
For O=C1CC(C(=O)N2CCc3ccccc32)CN1c1ccc(F)cc1 (stereo not given) the results were VDR inhibitor 4%.
`Nc1nnc(CCCCCc2nnc(N)s2)s1` gave VDR inhibitor -7%.
COc1ccc(CN(C)C(=O)COC(=O)c2cc([N+](=O)[O-])ccc2N2CCCC2)c(OC)c1OC was read as VDR inhibitor 21%.
Cc1cccc(C)c1NC(=O)CN(C)C(=O)c1cc([N+](=O)[O-])ccc1N1CCOCC1 was read as VDR inhibitor -17%.
For Cc1ccc(CNC(=O)c2ccc(CSCc3ccc(C)cc3)o2)cc1 the results were VDR inhibitor 3%.

High-throughput results as filed in PubChem.

The list is partial, so the mix of outcomes need not match the whole.
